SARS PLpro yeast – SARS-CoV PLP inhibition in yeast; S. cerevisiae expressing SARS-CoV PLpro, growth rescue; control for the full effect not named in the record; Potency, µM (top dose mostly 32.9 µM), for the others: at the top dose activity, positive = growth rescue; 330,000 compounds, 0.19% hits; AID 485353; active means well fitted rising curve with a large enough effect; inconclusive means small, poorly fitted or top-dose-only effect; inactive means no such curve, though single readings can be large or run the other way; note: 0% is about no effect; nearly all actives have a fitted effect of over 55% in size; growth read by luminescence after 48 h
Cruzain noTriton – cruzain (T. cruzi) inhibition without detergent; P25779; 200,000 compounds, 2.3% hits; AID 1476; purified cruzain, Z-FR-AMC fluorescence, no detergent; Potency, µM, inactives show max response, negative = inhibition, usual class: inhibitors;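 note: plate controls were enzyme without inhibitor for no effect and buffer without enzyme for full effect; nearly all actives have a fitted effect of over 40% in size; top concentration of the series not given in the record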
Target sequence (P25779 123-467 limits assumed): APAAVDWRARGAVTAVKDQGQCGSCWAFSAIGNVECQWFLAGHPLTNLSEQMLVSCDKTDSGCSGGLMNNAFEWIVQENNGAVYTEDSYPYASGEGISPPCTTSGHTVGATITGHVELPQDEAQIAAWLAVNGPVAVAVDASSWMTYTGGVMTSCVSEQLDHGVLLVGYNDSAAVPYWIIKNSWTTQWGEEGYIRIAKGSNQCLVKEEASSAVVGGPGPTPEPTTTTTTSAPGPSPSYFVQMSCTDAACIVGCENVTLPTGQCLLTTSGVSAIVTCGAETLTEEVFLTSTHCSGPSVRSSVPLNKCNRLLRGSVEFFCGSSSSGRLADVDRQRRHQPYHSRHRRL
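Detergent-free condition (0.00005% Triton X-100) in acetate buffer pH 5.5 with DTT. 1.5 nM enzyme and compound were pre-mixed 15 min, then 2 uM Z-FR-AMC substrate added; reaction progress from fluorescence change between first and third reads (60 s).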
Cruzain inh Det – inhibitors of Trypanosoma cruzi cruzain with detergent | purified cruzain, Z-FR-AMC fluorescence, 0.01% Triton | Potency, µM, for the others: max response, negative = inhibition, most hits filed as inhibitors | 200,000 compounds, 0.43% hits | AID 1478;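 note: plate controls were neutral wells for no effect and buffer without enzyme for full effect; nearly all actives have a fitted effect of over 40% in size; top concentration of the series not given in the record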
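Cruzain (1.5 nM) preincubated 15 min at RT with compound in 100 mM sodium acetate pH 5.5, 5 mM DTT, 0.01% Triton X-100. Reaction started with 2 uM Z-FR-AMC; AMC fluorescence (ex 360/em 450 nm) change over 60 s gave rate.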
NS1 function inh – blocks influenza NS1 protein function | S. cerevisiae slowed by influenza A NS1, growth recovery by OD600 | 270,000 compounds, 0.4% hits | Potency, µM (titrated, usually from 46.1 µM), without a hit: at the top dose activity, positive = more growth; active means well fitted rising curve with a large enough effect; inconclusive means small, poorly fitted or top-dose-only effect; inactive means no such curve, though single readings can be large or run the other way; note: nearly all actives have a fitted effect of over 50% in size
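Read-out: OD600 growth recovery of NS1-expressing budding yeast. Cells grown overnight at 30C in -URA glucose medium, washed, resuspended and diluted 1:100 in 2% galactose assay medium, pH 6.0. Same strain lacking NS1 served as positive control.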
LASV entry inh – Lassa virus entry inhibition; Potency, µM (titrated, usually from 37.9 µM), for the others: at the top dose activity change, negative = inhibition, usual class: inhibitors; Lassa virus pseudotype entry inhibition, cell reporter; control for the full effect not named in the record; 300,000 compounds, 1.2% hits; AID 540256; active means well fitted inhibition curve with a large enough effect; inconclusive means small, poorly fitted or top-dose-only effect, or effect the other way; inactive means flat fitted curve, though single readings scatter; tested in HEK293 cells; note: % is set by controls: 0 for no effect and ±100 for the full control effect; nearly all actives have a fitted effect of over 50% in size; luciferase read-out
2A StopGo – lowers the luciferase signal of an FMDV 2A StopGo reporter; 410,000 compounds, 1.2% hits; Potency, µM (doses to about 57.9 µM), for the others: top-dose signal change, negative = less light; human cells with a luciferase reporter of 2A StopGo recoding; control for the full effect not named in the record; active = well fitted falling curve with a large enough effect; inconclusive = small, poorly fitted or top-dose-only effect; inactive = no such curve, though single readings can be large or run the other way; tested in HEK293T cells; note: % is set by controls: 0 for no effect and ±100 for the full control effect; nearly all actives have a fitted effect of over 45% in size; luciferase light after 4 h
Marburg entry inh – inhibitors of Marburg virus binding or cell entry; Marburg virus pseudotyped entry inhibition, cell reporter; control for the full effect not named in the record; about a third of the inactives were read at about 46 µM; Potency, µM (titrated, usually from 37.8 µM), for the others: at the highest dose activity change, negative = inhibition, usual class: inhibitors; 300,000 compounds, 1.8% hits; AID 540276; active = well fitted inhibition curve with a large enough effect; inconclusive = small, poorly fitted or top-dose-only effect, or effect the other way; inactive = flat fitted curve, though single readings scatter; tested in HEK293 cells; about a fifth of its hits are not listed in these tables; note: % is set by controls: 0 for no effect and ±100 for the full control effect; luciferase read-out
RE007 growth inh – less growth of the S. pombe RE007 Vpr strain | AID 651644 | S. pombe RE007 Vpr strain, BacTiter-Glo ATP luminescence, 24 h; control for the full effect not named in the record | 360,000 compounds, 0.21% hits | Potency, µM (top dose mostly 92.2 µM), inactives show top-dose activity change, negative = less growth; active = well fitted falling curve with a large enough effect; inconclusive = small, poorly fitted or top-dose-only effect; inactive = no such curve, though single readings can be large or run the other way;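 note: % is set by controls: 0 for no effect and ±100 for the full control effect; nearly all actives have a fitted effect of over 50% in size; the assay follows cell death caused by Vpr and the record does not say whether a fall means rescue or toxicity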
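Fission yeast strain RE007, carrying one chromosomally integrated HIV-1 vpr copy, was seeded at OD 0.01 in PMG+AL medium with 23 nL pinned compound. After 24 h at 30 °C and 99% humidity, viability was read by BacTiter-Glo luminescence.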
The depositor's hits bear a star; ? = inconclusive; / = no result given; & = joins results of further samples; [ ] = another dose, or the depositor's remark. Unless noted, calls come from the whole dose curve; as a rule, active = well fitted curve in the direction sought with a large enough effect; inconclusive = small, poorly fitted or top-dose-only effect, or another doubt; inactive = no such curve, though single readings can be large; an effect the other way counts as inactive or inconclusive. Potency is the fitted concentration of half-maximal effect. The order is random; overall some 4.7% were active at least once.

Structure	SARS PLpro yeast	Cruzain noTriton	Cruzain inh Det	NS1 function inh	LASV entry inh	2A StopGo	Marburg entry inh	RE007 growth inh
CCOC(=O)CCc1c(C)c2cc3c(c(C)c2oc1=O)OCN(CCc1ccccc1OC)C3	/	-14%	-5.5%	/	1%[46.1 µM]	-18%	-8%[46.1 µM]	/
Cc1cccc(S(=O)(=O)CC(=O)Nc2nc(-c3ccccc3)cs2)c1	-18%	?	-5.9%	-109%	-10%	-6%	?	-8%
CCCCc1nc2ccccc2c(=O)n1NC(=O)c1c(O)c2cccc3c2n(c1=O)CC3	0%	19%	-5.0%	-34%	-2%	?	16%	17%
CCC(=O)N1CCc2cc(Br)cc(S(=O)(=O)NCC3CCCN3CC)c21 (centres undefined)	3%	-7%	-2.0%	2%	0%	24%	2%&2%	1%
Cc1cccc(NC(=O)Cn2c(=O)c3cccn3c3ccccc32)c1C	/	?	-4.6%	/	?	-9%	/	/
O=C(NCCCn1ccnc1)c1cc(S(=O)(=O)N2CCOCC2)c(Cl)cc1Cl	-4%	-11%	-5.7%	-12%	0%	10%	1%&20%	10%
N#Cc1ccccc1NC(=O)c1ccc2c(Cl)c3c(nc2c1)CCCC3	?	2%	-6.5%	-15%	?	-13%	?	-20%
COc1ccc(CCNc2nc(C)nc3c2nnn3Cc2ccccc2)cc1	0%	/	/	14%	/	0%	/	2%
O=C(N/N=C/c1ccccc1)c1n[nH]c2c1CCCC2	-1%	/	/	/	?	-28%	?	15%
CC(=NNC(=O)CSc1nc2ccccc2o1)c1ccco1	2%	/	/	/	1%	37%[activator]	10%	21%
Cc1cc(-n2c(C)cc(C(=O)CN3C(=O)NC4(CCCC4)C3=O)c2C)no1	-5%	2%	1.8%	-6%	14%	/	-1%	11%
CC(C)(C)OC(=O)N1CCC(c2c(C(=O)NCC3CCN(C4CCCC4)C3)cnn2-c2ccc(F)cc2)CC1 (centres undefined)	-3%	/	/	3%	?	-20%	?	-6%
Cc1cccc(CS(=O)(=O)Cc2ccc(C(=O)NCCCN3CCCC3)o2)c1	0%	9%	5.0%	7%	4%	-24%	0%	-19%
O=C(O)C1CCCCC1C(=O)NC1C2CC3CC(C2)CC1C3 (centres undefined)	3%	/	/	1%	-28%	-3%	6%	-3%
Cc1c(NC(=O)COC(=O)c2cc3c4ccccc4n(C)c3s2)c(=O)n(-c2ccccc2)n1C	2%	?	-8.1%	6%	-6%	-22%	?	-3%
C[C@@H]1C(=O)O[C@@H]2[C@H](O)C34[C@H]5C[C@@H](C(C)(C)C)C36[C@H](OC(=O)[C@@H]6O)OC4(C(=O)O5)[C@@]12O (some centres undefined)	2%	10%	4.7%	-2%	3%	-2%	?	9%
CC(C)c1ccccc1NC(=O)COC(=O)c1c2c(nc3ccccc13)CCN(Cc1ccccc1)C2	-12%	?	-2.3%	-14%	?	0%	?	4%
O=C(/C(=C(\[O-])c1ccccc1)[n+]1ccc2ccccc2c1)c1ccc(Cl)cc1	9%	25µM*	0.1%	25%	?	38%[activator]	-26%	-16%
O=C(Nc1ccccc1-c1nc2ccccc2s1)C1=COCCO1	-23%	10%	-12%	14%	9%	?	-10%	-26%
CCC1C(=O)N(C)CCc2ccccc21 (centres undefined)	17%	4%	-0.3%	5%	5%	-6%	19%	-2%
Cc1nnc(NC(=O)CSc2ncc(-c3ccccc3)[nH]2)s1	4%	/	/	4.5µM*	/	35%[activator]	/	4%
C=CCN1C=C2C(=O)C(C)(OC(=O)c3ccc(OC)cc3)C(=O)C(c3ccco3)=C2C=C1CCCC (centres undefined)	1%	/	/	8%	/	-2%	4%&4%[14.2 µM]	-12%
CCCc1nc2oc(C(=O)OCC)c(N)c2c2c1COC(C)(C)C2	1%	14%	-6.3%	-2%	-9%	-16%	?	-8%
CN(C)CCCN(C(=O)c1cc(-c2cccs2)nc2ccccc12)c1nc2c(F)cccc2s1	1%	/	/	-27%	?	-17%	11µM*	10%
Cc1ccc(S(=O)(=O)N2CCC(C(=O)N3Cc4ccccc4C3)CC2)cc1	3%	-8%	-3.1%	-2%	-19%	-1%	?	-23%
CCc1ccc(C(=O)COC(=O)c2n[nH]c3ccccc23)cc1	-1%	/	/	/	?	-9%	-24%	1%
O=C(CSc1nnc(-c2ccc(O)cc2)o1)Nc1ccccc1Br	-1%	/	/	5%	?	37%[activator]	3%[46.1 µM]	0%
COc1cccc2c1OCC(CN1CCN(Cc3ccccc3)C(CCO)C1)=C2 (centres undefined)	-1%	/	/	-1%	/	-26%	/	-12%
COCC(=O)N1CCC(Oc2ccc(C(=O)N(C)C3CCCCC3)cc2)CC1	15%	/	/	6%	/	-7%	/	10%
CSc1ccccc1NC(=O)Nc1ccc(F)c(Cl)c1	-6%	2%	-6.3%	8%	8%	26%	-12%	7%
COC(=O)c1cccc(NC(=O)CCCOc2cccc(C)c2)c1	-4%	-24%	-6.3%	-15%	?	-7%	11%	-2%
Cc1ccc(C(=O)Nc2cc([N+](=O)[O-])ccc2C)cc1	0%	/	/	/	10%	14%	5%[46.1 µM]	3%
C=CCn1c(SCC(=O)Nc2cccc(C(=O)OC)c2)nnc1C(C)NC(=O)c1cccs1 (centres undefined)	9%	16%	0.9%	3%	12%	23%	5%	-6%
CCc1ccc(N2CC(C(=O)Nc3cccc(S(=O)(=O)N4CCCC4)c3)CC2=O)cc1 (centres undefined)	-1%	/	/	/	-34%	?	?	-19%
CN1NC(=O)CC1c1ccccc1 (centres undefined)	/	/	/	/	-12%[46.1 µM]	-4%	15%[46.1 µM]	11%
CC(C(=O)NCc1cccnc1)N1C(=O)c2ccccc2C1=O (centres undefined)	4%	-14%	2.0%	2%	-1%	2%	2%[46.1 µM]	20%
COC(=O)C1=C(C)NC2=C(C(=O)CC(C)(C)C2)C1c1cccc(C)n1 (centres undefined)	2%	-5%	1.6%	-4%	-4%	-13%	12%	7%
Cc1ccc(CCNc2ccc3ccccc3c2)cn1	/	/	/	/	?	7%	?	?
CC(C)CN(C(=O)c1ccc(S(=O)(=O)N2CCCCC2)cc1)C1CCS(=O)(=O)C1 (centres undefined)	-7%	/	/	/	0%	-15%	-14%	-22%
CCn1cc(CNC(=O)c2cc(Cl)ccc2OC)c(C)n1	-1%	-6%	3.8%	-14%	0%	-7%	2%	-20%
CC1CN(C(=O)CCC(=O)NCc2ccccc2)c2ccccc2S1 (centres undefined)	-1%	/	/	16%	/	-24%	/	1%
O=C(c1ccc([N+](=O)[O-])cc1)N1CCN(c2ccc(Nc3ccccc3)nn2)CC1	/	-25%	-9.8%	/	9%[46.1 µM]	-15%	/	/
O=C(NCc1ccccc1Cl)C1CCN(c2ncnc3c2nc2n3CCCCC2)CC1	-4%	/	/	-3%	9%[46.1 µM]	?	/	1%
Cc1ccc(NC(=O)CCC(=O)NNC(=O)C(c2ccccc2)c2ccccc2)c(C)c1	-7%	?	7.5%	16%	-25%[14.3 µM]	21%	2%	-2%
Cc1noc(C)c1S(=O)(=O)Nc1ccccc1N1CCOCC1	1%	/	/	-3%	?	-6%	-6%	7%
O=C(CNC(=O)c1ccccc1)OC(C(=O)c1ccccc1)c1ccccc1 (centres undefined)	?	4µM*	6.3µM*	-33%	3%	0%	8%	-8%
Cc1nc2ccc(NC(=O)c3ccc(Cl)s3)cc2s1	-2%	-7%	-0.7%	5%	/	21%	/	-2%
Cc1cccc(C(=O)N(CCc2ccccc2)Cc2ccccc2)c1[N+](=O)[O-]	-3%	/	/	-1%	/	?	/	-16%
CC1CCN(C(=O)CN2C(=O)C(C)(C)Oc3ccc(C(=O)NC4CCCC4)cc32)CC1	1%	-6%	0.6%	-8%	9%	1%	-15%	-5%
COc1ccc(Cc2nc3ccc(C(=O)NCCc4ccccn4)cc3o2)cc1OC	/	/	/	-2%	?	?	-4%[46.1 µM]	0%
COc1ccc(OC(C)C(=O)Nc2cccnc2)cc1 (centres undefined)	2%	-10%	3.8%	3%	3%	-25%	12%	4%[3.69 µM]
COCCCNC(=O)C1CCCN(C(=O)c2cnn(-c3ccc(F)cc3)c2-n2cccc2)C1 (centres undefined)	/	6%	-1.7%	/	-1%[46.1 µM]	-6%	/	/
CN1CCN(S(=O)(=O)c2ccc(N(C)CC(=O)Nc3ccc(F)cc3)nc2)CC1	2%	13%	1.9%	-7%	/	/	/	/
O=C(CCn1cccn1)N1CCCC(N2CCN(c3cccc(C(F)(F)F)c3)CC2)C1 (centres undefined)	1%	/	/	11%	?	-8%	-21%	-20%
CCc1cccc(-n2c(=O)c3cccnc3n2CC(=O)NCc2ccccc2)c1	/	11%	-13%	/	-8%[46.1 µM]	-1%	/	/
CCCCCC(=O)N(Cc1ccccc1)c1c(N)n(CCOC)c(=O)[nH]c1=O	/	/	/	/	15%	0%	-11%	6%
C(=N\Nc1nncc2ccccc12)/c1ccccn1	13µM*	/	/	-126%	1.1µM*	?	?	?
COc1cc(OC)c(OC)cc1C=NCC1(c2ccccc2)CCCC1	6%	-1%	1.0%	-6%	-10%	/	-25%	-9%
O=C(NCc1ccco1)C(c1ccccc1)N(Cc1cccnc1)C(=O)Cn1nnc2ccccc21 (centres undefined)	-7%	2%	-0.5%	1%	1%	-11%	9%&9%[46.1 µM]	25%
